# Bioassay records (PubChem BioAssay)
# Anaer choline gr = inhibitors of anaerobic choline-dependent gram-negative bacterial growth. Gram-negative bacterium anaerobic choline minimal medium, absorbance growth; stronger effect = lower value; many inactives read as strong as hits in the columns shown. calls only. 55,000 compounds, 0.2% hits. AID 1963822;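 active means growth z-score on choline under -2 at 7 or 20 h with little or no fall on glycerol, limits in tiers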;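 further: stock transfer was 300 nL into about 50 µL; the organism is E. coli; final concentration not given here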
# Anaer choline gr early = further read-out of Anaer choline gr, marked with its call; z-score; measured here: choline growth z-score, timepoint 1;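 score of optical density at 7 h as mean of two plates; lower means less growth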
# * marks the source's active call; other numbers are inactive results; i = inactive; & = joins results of further samples. A portion of the library (hit frequency here may not be typical).
Anaer choline gr | Anaer choline gr early | mol
i | 0.15 | Cn1c(=O)oc2cc(-c3noc(-c4cc(F)cc(F)c4)n3)ccc21
i | 0.47&0.97 | NCCc1ccc(O)c(O)c1
i | 1.25 | COc1ccc(-c2cc3ncc(C(=O)c4cc(Cl)ccc4O)cn3n2)cc1
i | -0.12 | CCCNC(=O)c1ccc2c(c1)S(=O)(=O)N=CN2CCc1ccccc1
i | 0.65 | Cc1ccc(-c2cc(=O)n3[nH]c(C)nc3n2)cc1
i | -0.15 | CC(c1nnc(SCC(=O)c2ccc(Cl)cc2)n1C)N1C(=O)COc2ccccc21 (configuration not stated)
i | 0.35 | COc1ccc(CNc2nc3nc(CNc4ccc(Br)cc4)cc(=O)n3[nH]2)cc1OC
i | -1.29 | c1ccc2c(c1)CCN2Cc1cn2ccccc2n1
i | -3.35 | COc1ccc(C[C@H](N)C(=O)N[C@H]2[C@@H](O)[C@H](n3cnc4c(N(C)C)ncnc43)O[C@@H]2O)cc1
i | -1.47 | O=C(c1ccc(Cl)cc1)N1CCN(CCc2ccncc2)CC1
i | -0.67 | CCCOc1ccc(CNC(=O)CC(C)(C)CC2=NS(=O)(=O)c3ccccc3N2)cc1OCCC
i | -1.03 | Cn1ccc2cc(S(=O)(=O)N3CCC(C(=O)NC4CCN(Cc5ccccc5)CC4)CC3)ccc21
i | -0.3 | CC1(C)Cc2nc3c(cc2CO1)c(=O)n(-c1ccccc1)c(=O)n3CC(=O)Nc1ccccc1
i | -0.68 | COc1ccc(CN2C(=O)c3c(-n4cccc4)c4cc(C)ccc4n3CC2(C)C(=O)NC2CCC(C)CC2)cc1 (configuration not stated)
i | -0.8 | CC(=O)Nc1ccccc1-c1nc2ccccc2n(Cc2cccc(Br)c2)c1=O
i | 0.33 | COc1ccc(-c2cc(Oc3cccc(C(=O)Nc4cccc(F)c4)c3)ncn2)cc1
i | -1.02 | O=C(NCc1ccc2c(c1)OCO2)c1cccc(NC(=O)c2nsc3ccccc23)c1
i | -0.52 | O=C1C(=O)N(C2CCN(C(=O)c3ccc4c(c3)OCO4)CC2)CCN1Cc1ccc(F)cc1
i | 0.31 | CCOc1ccc2nc(N3CCC(C(=O)NCc4ccccc4)CC3)sc2c1
i | 1.48 | COc1ccc(OC)c(N2CC(C(=O)O)CC2=O)c1 (configuration not stated)

# Going on with the list:
Anaer choline gr | Anaer choline gr early | mol
i | -0.23 | COc1ccc(S(=O)(=O)NCc2ccc(C(=O)N3CCN(c4ccccn4)CC3)cc2)cc1
i | 0.94 | COc1ccc(OC)c(NS(=O)(=O)c2ccc(OC)c(-c3noc(C4CCCCC4)n3)c2)c1
i | 0.36 | Cc1sc(-c2ccno2)cc1S(=O)(=O)NC1CCCCC1
i | 0.19 | O=C(NCCCN1CCOCC1)C1CCCN(c2ncc(-c3ccccc3)cn2)C1 (configuration not stated)
i | 0.18 | CC(=O)N1CCCC(c2nc(C(C)C)cs2)C1 (configuration not stated)
i | 0.21 | Cn1ncc2c(Nc3ccccc3)nc(NCCCO)nc21
i | -1.11 | COc1cc(NC(=O)C(C)SC2=Nc3ccccc3C3=NC(C)C(=O)N23)cc(OC)c1 (configuration not stated)
i | -2.52 | COC(=O)c1cc(Nc2ccccc2)c2ccccc2n1
i | 0.93 | O=C(Nc1cccc(F)c1)c1ccc(-n2nc(OCc3cccc(F)c3)ccc2=O)cc1
i | 0.66 | CCCCN(CC)c1ccc2nnc(CCc3nc(-c4ccc(C)cc4)no3)n2n1
i | 0.35 | CN(C)CCNC(=O)c1nc[nH]c1C(=O)NCc1ccccn1
i | 0.64 | CC(=O)N1CCCSc2ccc(S(=O)(=O)Nc3cccc(C)n3)cc21
i | -1.12 | COc1ccccc1NC(=O)c1ccc2cccc(O)c2n1
i | 0.61 | O=S(=O)(c1cccc(S(=O)(=O)N2CCC(c3nnnn3-c3ccc(F)cc3)CC2)c1)N1CCOCC1
i | -0.75 | COc1ccc(-n2nc(C(=O)NCCC3=CCCCC3)c3c4ccccc4n(C)c3c2=O)cc1Cl
i | -0.88 | O=C(Cn1c(=O)n(Cc2ccc(Cl)cc2)c(=O)c2nccnc21)Nc1ccc(Cl)cc1
i | -0.76 | O=C(CCc1nc2sc3c(c2c(=O)[nH]1)CCCCC3)NCCN1CCOCC1
i | -0.08 | CCOC(=O)c1c(C)c(S(=O)(=O)N2CCN(c3ncccn3)CC2)c(C)n1C
i | 0.66 | COc1ccc(-n2nc(C(=O)Nc3cccc(C)n3)c(=O)n(C)c2=O)cc1
i | -0.17 | Cc1[nH]c(C)c(S(=O)(=O)N2CCC(C(=O)N3CCC(C)CC3)CC2)c1C(=O)N1CCCCC1

# The list continues:
Anaer choline gr | Anaer choline gr early | mol
i | 2.04 | COc1ccc(NC(=O)c2nn(C)c3c2CCc2sccc2-3)cc1Cl
i | 0.58 | O=S(=O)(Cc1ccccc1)N1CCCN(c2nc3cc(Cl)ccc3n3cccc23)CC1
i | 0.72 | Cc1ccc(-c2nc3nc(C)cc(N4CCOCC4)n3n2)cc1
i | 0.09 | Cc1ccc2c(=O)cc(C(=O)Nc3ccccc3F)oc2c1
i | 0.17 | O=C(Cc1ccsc1)Nc1cnc(N2CCOCC2)nc1
i | 0.82 | Cc1cc(OCC(=O)Nc2ccc(Br)cc2)nc(N2CCCC2)n1
i | -0.48 | Cc1nn(-c2ccc3nnc(C)n3n2)c2c1C(c1cc(Br)ccc1F)CC(=O)N2 (configuration not stated)
i | 0.06 | COc1ccc(OC)c(Nc2nc(NC3CCCC3)nc3c2cnn3-c2ccccc2)c1
i | 1.18 | CS(=O)(=O)NC(=O)CCC/C=C\C[C@H]1C(=O)C[C@@H](O)[C@@H]1/C=C/[C@@H](O)COc1ccccc1
i | 1.59 | Cc1ccc(NC(=O)c2c(C)cc(C)nc2SCC(=O)Nc2ccc(Br)cc2)cc1
i | 1.55 | O=S1(=O)c2ccccc2NC(c2ccccc2Cl)N1Cc1cccc(Cl)c1 (configuration not stated)
i | -0.87 | COc1ccc2c(c1)CCc1c-2n[nH]c1C(=O)Nc1ccc2sc(NC(=O)c3ccccc3)nc2c1
i | 0.9 | Clc1ccccc1-c1noc(Cc2nc(-c3ccccc3)cs2)n1
i | 1.3 | CCOc1ccccc1NC(=O)n1ncc2ccccc21
i | -0.81 | O=C(CN1C(=O)CCCc2ccccc21)NCc1ccc(F)cc1F
i | -1.18 | O=S(=O)(NC1CCCCC1)c1ccc2c(c1)-c1oncc1CO2
i | 0.99 | CCCCc1nnc(NC(=O)Cc2csc(COc3ccc(Cl)c(C)c3)n2)s1
i | -0.65 | COc1ccc(Oc2cc3c(cc2NS(=O)(=O)c2cccc4nsnc24)n(C)c(=O)n3C)cc1
i | -0.4 | COc1ccc(CNC(=O)c2nc(CS(=O)(=O)c3ccc(Cl)cc3)no2)c(OC)c1
i | -0.74 | CCS(=O)(=O)c1nc2ccc(NS(C)(=O)=O)cc2s1

# Next section.
Anaer choline gr | Anaer choline gr early | mol
i | 0.71 | Cc1nc(-c2cc(S(=O)(=O)Nc3ccc(Br)cc3)c(C)s2)cs1
i | 0.25 | Cc1ccc(CNC(=O)C2CCCN2S(=O)(=O)c2cc3c(cc2C)NC(=O)CO3)cc1 (configuration not stated)
i | -0.41 | CCOc1ccccc1N1CCN(S(=O)(=O)c2nn(C)cc2C(=O)NC2CCCCC2)CC1
i | 0.45 | O=C(Nc1cccc(C(=O)NCC2CCCO2)c1)C1=CSCCO1 (configuration not stated)
i | -0.09 | O=C(C1CCCN(c2ccc(Sc3ccc(Br)cc3)nn2)C1)N1CCSCC1 (configuration not stated)
i | 0.34 | COCCNC(=O)N1CCCC(C)(C(=O)NCc2ccc(C)cc2)C1 (configuration not stated)
i | -0.46 | CC1CS(=O)(=O)N(c2ccc(S(=O)(=O)N3CCc4ccccc43)cc2)C1=O (configuration not stated)
i | 0.06 | Cc1ccc(-c2cc(N3CCC(C(=O)NC(C)C)CC3)ncn2)cc1
i | 1.2 | C#CCOc1ccc(C2CC(=O)Nc3c2c(C)nn3-c2ccc3nncn3n2)cc1 (configuration not stated)
i | -0.75 | O=C(NCc1ccccc1F)c1ccc2c(c1)sc1nc(-c3ccc(Cl)cc3)cn12
i | -0.23 | CCCCN(Cc1nc2nc(C)cc(C)n2n1)S(=O)(=O)c1ccc(C)cc1
i | 0 | C#CCOc1ccc2c(c1)c(C(=O)OCC)c(C)n2C
i | -0.11 | CC1CC(=O)N(Cc2ccccc2F)c2ccccc2N1 (configuration not stated)
i | -0.26 | Cc1ccc(NC(=O)NCc2nnnn2-c2ccccc2)cc1
i | 0.79 | O=C(Nc1nccs1)c1ccc(-c2noc(C3CCCC3)n2)cc1
i | 0.05&0.76 | CN1C2CCC1CC(OC(c1ccccc1)c1ccccc1)C2 (configuration not stated)
i | -1.3 | COc1ccc(Nc2cc(C)c3cc(NC(=O)Cn4c(=O)oc5ccccc54)ccc3n2)cc1
i | 0.19 | CC(C)Cc1nnc(C(=O)Nc2ccc(C(=O)NCCc3c[nH]c4ccccc34)cc2)s1
i | -0.84 | O=C(NCCCN1CCN(C2CCCCC2)CC1)C1CCCN1c1nnc(N2CCCC2=O)s1 (configuration not stated)
i | 1.59 | CCOC(=O)c1ccc2c(c1)N(Cc1nc(-c3cccc(C)c3)oc1C)C(=O)c1ccccc1S2(=O)=O

# Quoted at random: 2 compounds from above, in no set order.
Anaer choline gr | Anaer choline gr early | mol
i | -0.23 | CCCCN(Cc1nc2nc(C)cc(C)n2n1)S(=O)(=O)c1ccc(C)cc1
i | -0.09 | O=C(C1CCCN(c2ccc(Sc3ccc(Br)cc3)nn2)C1)N1CCSCC1 (configuration not stated)

# Reprinted from above (six entries):
Anaer choline gr | Anaer choline gr early | mol
i | 0.71 | Cc1nc(-c2cc(S(=O)(=O)Nc3ccc(Br)cc3)c(C)s2)cs1
i | 0.25 | Cc1ccc(CNC(=O)C2CCCN2S(=O)(=O)c2cc3c(cc2C)NC(=O)CO3)cc1 (configuration not stated)
i | -0.41 | CCOc1ccccc1N1CCN(S(=O)(=O)c2nn(C)cc2C(=O)NC2CCCCC2)CC1
i | 0.45 | O=C(Nc1cccc(C(=O)NCC2CCCO2)c1)C1=CSCCO1 (configuration not stated)
i | -0.09 | O=C(C1CCCN(c2ccc(Sc3ccc(Br)cc3)nn2)C1)N1CCSCC1 (configuration not stated)
i | 0.34 | COCCNC(=O)N1CCCC(C)(C(=O)NCc2ccc(C)cc2)C1 (configuration not stated)

# (more compounds)
Anaer choline gr | Anaer choline gr early | mol
i | -0.29 | Cc1cc(C)n(CC(=O)Nc2ccc3c(c2)OCCO3)c(=O)c1S(=O)(=O)c1ccc(Cl)cc1
i | -0.55 | Cn1cc(C(=O)NCCC2=CCCCC2)c(S(=O)(=O)N2CCCCC2)n1
i | 0.8 | CCCn1c(=O)c2sccc2n2c(CCC(=O)NCCc3c[nH]c4ccccc34)nnc12
i | -0.55 | CN(C)CC1CCN(C(=O)NC2CCCCC2)CC1
i | 0.77 | O=C(CSc1ccccc1)N1CCC2(CC1)Nc1ccccc1-n1cccc12
i | -0.25 | CCCn1c(=O)c2ccccc2n2c(=O)n(CC(=O)NCc3ccccc3Cl)nc12
i | -2.41 | CNC(=O)NC1CCN(C2=NS(=O)(=O)C(c3ccc(Cl)cc3)=C2C)CC1
i | -1.95 | CCc1ccccc1NS(=O)(=O)c1cc(-c2nc(C(C)(C)C)cs2)cs1
i | -0.1 | CNC(=O)C1Cc2ccccc2N1C(C)=O (configuration not stated)
i | 0.75 | CC(NC(=O)c1ccccc1)c1nc(-c2ccc3c(c2)nnn3C)no1 (configuration not stated)
i | -1.23 | CN(C)CCc1c[nH]c2ccc(CS(=O)(=O)N3CCCC3)cc12
i | 0.52&-1.33&0.9 | CCCCOc1cc(CC2CNC(=O)N2)ccc1OC (configuration not stated)
i | 0.2 | CN(C)c1ccc(-c2noc(C3CCCCC3)n2)cc1
i | -1.69 | CCN(Cc1ccccc1)c1ccc(NS(=O)(=O)c2cc(OC)ccc2OC)cc1C(=O)O
i | 1.11 | Clc1ccc(CNc2ncnc3c(-c4ccc(Cl)cc4)noc23)cc1
i | 0.37 | Clc1cc(Br)ccc1-c1ccc(CNCc2cccnc2)o1
i | -0.7 | CNC(=O)c1c(NC(=O)c2ccc(S(=O)(=O)N(C)c3ccccc3)cc2)sc2c1CCC2
i | 0.32 | CNC(=O)c1c(I)c(C(=O)NCC(=O)Nc2c(I)c(C(=O)O)c(I)c(C(=O)NCCO)c2I)c(I)c(N(C)C(C)=O)c1I
i | 0.92 | O=C(COc1ccc(F)cc1)N1CC(OCc2ccc(F)cc2Cl)C1
i | 0.99 | Clc1ccc(-c2noc3ncnc(N4CCN(Cc5ccccc5)CC4)c23)cc1

# (more compounds)
Anaer choline gr | Anaer choline gr early | mol
i | 0.05 | Cc1csc(-c2csc(S(=O)(=O)N3CCN(c4ccccc4F)CC3)c2)n1
i | -1.21 | COc1ccc(NC(=O)N(C)CCc2noc(C3CCCCC3)n2)cc1
i | -0.24 | CCSc1nc2c(s1)c(=O)n(-c1ccccc1)c(=O)n2CC(=O)NCc1ccccc1
i | -0.76 | Cc1cccc(-c2nc3c4ccccc4n(CC(=O)Nc4ccccc4Cl)c(=O)n3n2)c1
i | 0.59 | CCN(CC)C(=O)Cn1c(=O)n(Cc2ccccc2)c(=O)c2c1c(C)nn2CC
i | -0.21 | Cc1cc(C)c2c(n1)SCCN2C(=O)Nc1ccc(C(=O)NCCN2CCN(C)CC2)cc1
i | 0.91 | Cc1[nH]c2ccccc2c1C(=O)CSc1nnc(CN(c2ccc(F)cc2)S(C)(=O)=O)n1C
i | -0.02 | COc1ccc(OC)c(NC(=O)c2cc(C(F)(F)F)n(C)n2)c1
i | 1.36 | Cc1c(C(=O)N2CCC(Cc3ccccc3)CC2)oc2ccc(S(=O)(=O)N3CCOCC3)cc12
i | -0.02 | COc1ccc(C)cc1NC(=O)N1CCN(CC(=O)c2c(C)n(C)c3ccccc23)CC1
i | 0.02 | Cc1cc(N2CCCCC2C)n2nc(-c3cccnc3)nc2n1 (configuration not stated)
i | -0.37 | CCCn1c(=O)c2ccc(Cl)cc2n2c(SCc3ccc(Cl)cc3)nnc12
i | -1.78 | Fc1ccccc1-c1nn2cnnc2s1
i | 0.88 | CCOc1ccc(CCNc2nc(-c3ccc(OC)cc3)no2)cc1OCC
i | 1.18 | Cc1ccc(N)cc1CN1CCCC1=O
